# Vaccinia stage: blocks a specific stage of Vaccinia orthopoxvirus infection; Vaccinia-infected cells, mCherry/Venus stage reporter fluorescence; hits give low values; some inactives read as strong as hits; activity change (mCherry), % (no concentration beside the values); 0.01% of 89,000 active;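 active means mCherry past -33% and 40 or more points under the early reporter, replicates agreeing; inconclusive means past -33% without that gap or agreement; tested in A549 cells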;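 further: scaled between vehicle wells and reference inhibitor wells; 23 nL library stock went into each well; one replicate is shown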
# Vaccinia stage Venus: second read-out of Vaccinia stage, no call of its own (marks repeat the call); activity change (Venus), %; measured here: Venus reporter, other viral stage;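 negative = less Venus signal; first of two replicates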
# * hit, by the source's call; ? = inconclusive; nt = no result given; & = joins results of further samples. Some of the compounds tested; rates above refer to the full screens.
# Every second line gives: Vaccinia stage	Vaccinia stage Venus
> COc1ccccc1C#Cc1cnc2c(c1)C(=O)N([C@H](C)CO)C[C@H](C)[C@H](CN(C)C(C)=O)O2
  5	-6
> C[C@H](CO)N1C[C@H](C)[C@H](CN(C)C(=O)NC2CCCCC2)Oc2ccc(NC(=O)Nc3ccc(F)cc3)cc2C1=O
  15	4
> C[C@@H]1CN([C@H](C)CO)C(=O)c2cc(C#CCN(C)C)cnc2O[C@H]1CN(C)Cc1ccc(F)cc1
  17	7
> C[C@H]1CN([C@@H](C)CO)C(=O)Cc2cc(NC(=O)Nc3ccc(F)cc3)ccc2O[C@H]1CN(C)Cc1ccc(Oc2ccccc2)cc1
  ?	nt
> COC(=O)[C@@H]1[C@@H](CO)[C@@H]2Cn3c(ccc(C4=CCCCC4)c3=O)[C@H]1N2Cc1cccnc1
  19	10
> CN(C)Cc1cn(CC[C@@H]2CC[C@@H](NS(=O)(=O)c3ccc(-c4ccccc4)cc3)[C@@H](CO)O2)nn1
  -28	-22
> CS(=O)(=O)N1[C@@H](C#N)[C@H](c2ccc(C#Cc3cccc(F)c3)cc2)[C@@H]1CO
  -24	-23
> Cc1noc(C)c1NC(=O)N(C)C[C@@H]1OCCCC[C@H](C)Oc2ccc(NC(=O)c3ccccc3)cc2C(=O)N([C@@H](C)CO)C[C@H]1C
  29	7
> Cc1ccc(-c2cnc3c(c2)C(=O)N([C@@H](C)CO)C[C@@H](C)[C@@H](CN(C)C(=O)c2cccnc2)O3)cc1
  0	2
> C/C=C/c1ccc2c(c1)O[C@@H](CN(C)C(=O)Nc1ccc(OC)cc1)[C@H](C)CN([C@@H](C)CO)S2(=O)=O
  6	-1
> CCC(=O)N1CC[C@@H]2[C@H](CO)Nc3ccc(C#Cc4ccc(F)cc4)cc3[C@@H]21
  0	3
> O=C(O)[C@@H]1[C@@H](CO)[C@@H]2Cn3c(ccc(-c4cncnc4)c3=O)[C@@H]2N1C(=O)C1CCCCC1
  5	0
> CO[C@@H]1CN(C)C(=O)c2cc(NS(C)(=O)=O)ccc2OC[C@H](C)N(C(=O)c2ccc3c(c2)OCO3)C[C@H]1C
  19	5
> C/C=C/c1ccc2c(c1)O[C@H](CN(C)C(=O)Nc1cccc(F)c1)[C@H](C)CN([C@H](C)CO)S2(=O)=O
  ?	nt
> COc1cccc(-c2ccc3n(c2=O)C[C@H]2[C@H](CO)[C@@H](C(=O)N(C)C)[C@@H]3N2C(=O)c2cnccn2)c1
  6	6
> COc1ccccc1-c1ccc([C@H]2[C@@H](CO)N(C(=O)c3cccc(F)c3)[C@H]2C#N)cc1
  6	1
> O=S(=O)(c1ccccc1)N1CCCCN2[C@@H](CO)[C@H](c3ccc(C#Cc4ccccc4)cc3)[C@@H]2C1
  -9	-8
> CO[C@@H]1CN(C)C(=O)c2ccc(NC(=O)C3CC3)cc2OC[C@H](C)N(Cc2cccnc2)C[C@H]1C
  6	10
> C[C@H](CO)N1C[C@H](C)[C@H](CN(C)S(=O)(=O)c2ccc(Cl)cc2)Oc2c(NC(=O)NC3CCCCC3)cccc2C1=O
  ?	nt
> C[C@@H]1CN([C@@H](C)CO)S(=O)(=O)c2ccc(-c3ccncc3)cc2O[C@@H]1CN(C)Cc1ccccn1
  -5	5
> CCS(=O)(=O)N[C@H]1C=C[C@@H](CC(=O)NC2Cc3ccccc3C2)O[C@H]1CO
  4	-1
> C[C@@H]1CN([C@@H](C)CO)S(=O)(=O)c2ccc(-c3cncnc3)cc2O[C@H]1CN(C)C(=O)C1CCCCC1
  8	10
> C[C@@H]1CN([C@@H](C)CO)C(=O)Cc2cc(NC(=O)CCCN(C)C)ccc2O[C@H]1CN(C)S(=O)(=O)c1ccc(Cl)cc1
  -11	1
> COc1ccc(C#Cc2cnc3c(c2)C(=O)N([C@@H](C)CO)C[C@H](C)[C@H](CN(C)CC2CCOCC2)O3)cc1
  -10	2
> C[C@H]1CCCCO[C@@H](CN(C)Cc2ccccc2)[C@@H](C)CN([C@@H](C)CO)C(=O)c2cc(NS(=O)(=O)c3cccs3)ccc2O1
  ?	nt
> CCOC(=O)N(C)C[C@@H]1OCc2cnnn2CCCC(=O)N([C@@H](C)CO)C[C@H]1C
  11	7
> CN1C[C@@H]2[C@H](c3ccccc31)[C@@H](CO)N2Cc1ccccc1
  ?	nt
> CO[C@H]1CN(C)C(=O)c2ccc(NC(=O)C3CC3)cc2OC[C@H](C)N(Cc2nccs2)C[C@@H]1C
  -5	-1
> COc1ccc(NC(=O)N(C)C[C@@H]2Oc3ncc(C#CCC(C)C)cc3C(=O)N([C@H](C)CO)C[C@@H]2C)cc1
  -9	-7
> O=C(CC(F)(F)F)N1C[C@H]2[C@@H](c3ccccc31)[C@H](CO)N2C(=O)c1ccncc1
  24	13

# Reformatted as labelled records: part of the list above.
C[C@@H]1CN([C@H](C)CO)C(=O)c2cc(C#CCN(C)C)cnc2O[C@H]1CN(C)Cc1ccc(F)cc1
  Vaccinia stage: 17
  Vaccinia stage Venus: 7
C[C@H]1CN([C@@H](C)CO)C(=O)Cc2cc(NC(=O)Nc3ccc(F)cc3)ccc2O[C@H]1CN(C)Cc1ccc(Oc2ccccc2)cc1
  Vaccinia stage: ?
  Vaccinia stage Venus: nt
COC(=O)[C@@H]1[C@@H](CO)[C@@H]2Cn3c(ccc(C4=CCCCC4)c3=O)[C@H]1N2Cc1cccnc1
  Vaccinia stage: 19
  Vaccinia stage Venus: 10

# New compounds follow:
# Every second line gives: Vaccinia stage	Vaccinia stage Venus
> CCCNC(=O)N1CC2(CCN(CC3CCCC3)CC2)c2c(n(C)c3cc(OC)ccc23)[C@H]1CO
  ?	nt
> O=C(C[C@H]1CC[C@@H]2[C@H](COC[C@@H](O)CN2CC2CC2)O1)NCC1CC1
  12	16
> CCCNC(=O)N(C)C[C@H]1Oc2ncc(C#CCC3CCCC3)cc2C(=O)N([C@H](C)CO)C[C@@H]1C
  -2	-8
> CC(C)NC(=O)Nc1ccc2c(c1)C(=O)N([C@@H](C)CO)C[C@@H](C)[C@@H](CN(C)S(=O)(=O)c1ccc(Cl)cc1)OCCCC[C@H](C)O2
  4	1
> C[C@H]1CN([C@@H](C)CO)S(=O)(=O)c2ccc(C#Cc3ccncc3)cc2O[C@H]1CN(C)C
  8	-1
> C[C@@H]1CN([C@H](C)CO)S(=O)(=O)c2ccc(-c3cncnc3)cc2O[C@H]1CN(C)C(=O)CN(C)C
  4	6
> C[C@@H]1CN([C@@H](C)CO)C(=O)Cc2cc(NC(=O)NC3CCCCC3)ccc2O[C@H]1CN(C)Cc1ccc(Cl)c(Cl)c1
  -17	-8
> Cc1noc(C)c1NC(=O)Nc1cccc2c1O[C@@H](CN(C)C(=O)Nc1ccc3c(c1)OCO3)[C@H](C)CN([C@H](C)CO)C2=O
  3	-2
> C[C@@H]1CN([C@H](C)CO)C(=O)c2cc(C#Cc3ccccc3)cnc2O[C@H]1CN(C)C(=O)CCN1CCCCC1
  ?	nt
> CCCNC(=O)C[C@@H]1CC[C@@H]2[C@H](COc3ccc(NC(=O)c4ccc(C(F)(F)F)cc4)cc3C(=O)N2C)O1
  -34	-28
> C[C@@H]1CN([C@@H](C)CO)C(=O)c2cc(NC(=O)Nc3ccc4c(c3)OCO4)ccc2O[C@H]1CN(C)Cc1ccc(C(F)(F)F)cc1
  ?	nt
> O=C(Cc1ccncc1)NCC[C@H]1CC[C@H](NC(=O)Nc2ccc(Cl)cc2)[C@H](CO)O1
  11	12
> COc1ccc(C(=O)Nc2ccc3c(c2)C(=O)N(C)C[C@@H](OC)[C@H](C)CN(C(C)=O)[C@H](C)CO3)cc1
  -5	-2
> CCOC(=O)[C@H](Cc1c[nH]c2ccccc12)NC(=O)CN=[N+]=[N-]
  -4	-15
> CC(C)NC(=O)N(C)C[C@H]1OCCCC[C@H](C)Oc2ccc(NC(=O)C3CCCCC3)cc2C(=O)N([C@@H](C)CO)C[C@H]1C
  22	8
> C[C@H](CO)N1C[C@H](C)[C@@H](CN(C)S(=O)(=O)c2ccc(F)cc2)Oc2ccc(NC(=O)Cn3cnnn3)cc2CC1=O
  26	12
> COc1ccc(NC(=O)Nc2ccc3c(c2)C(=O)N([C@@H](C)CO)C[C@@H](C)[C@@H](CN(C)C(=O)CCCN(C)C)OCCCC[C@H](C)O3)cc1
  4	3
> C[C@H]1CN([C@@H](C)CO)C(=O)Cc2cc(NC(=O)c3ccncc3)ccc2O[C@H]1CN(C)C(=O)Nc1ccccc1
  25	21
> N#Cc1cccc(-c2ccc([C@H]3[C@H](CO)N4CCCCN(S(=O)(=O)c5ccccc5)C[C@@H]34)cc2)c1
  5	-1
> CCCN(C)C[C@H]1Oc2cc(-c3ccc(C#N)cc3)ccc2S(=O)(=O)N([C@@H](C)CO)C[C@H]1C
  -27	-25
> C[C@H](CO)N1C[C@H](C)[C@H](CN(C)C(=O)Nc2cccc3ccccc23)OCCCC[C@H](C)Oc2ccc(NC(=O)c3ccncc3)cc2C1=O
  14	25
> C[C@H](CO)N1C[C@H](C)[C@H](CN(C)Cc2ccc(F)cc2)OCc2ccccc2-c2ccccc2C1=O
  -28	-25
> Cc1ccc(S(=O)(=O)Nc2ccc3c(c2)C(=O)N([C@@H](C)CO)C[C@H](C)[C@H](CN(C)C(=O)NC2CCCCC2)OCCCC[C@@H](C)O3)cc1
  -18	-17
> O=C(O)C[C@@H]1CC[C@H](NC(=O)Nc2cc(F)ccc2F)[C@@H](CO)O1
  5	2
> C[C@H](CO)N1C[C@H](C)[C@@H](CN(C)C(=O)CCC(F)(F)F)OCCCC[C@H](C)Oc2ccc(NC(=O)Nc3ccccc3)cc2C1=O
  1	2
> C[C@H](CO)N1C[C@H](C)[C@H](CN(C)S(=O)(=O)c2ccccc2)Oc2c(NS(=O)(=O)c3ccc(F)cc3)cccc2C1=O
  7	2
> O=C(O)C[C@H]1CC[C@@H]2[C@H](COC[C@@H](O)CN2S(=O)(=O)c2ccc(Oc3ccccc3)cc2)O1
  14	5
> COc1ccc(NC(=O)N(C)C[C@@H]2OCCCC[C@H](C)Oc3ccc(NC(=O)Nc4ccc(C(F)(F)F)cc4)cc3C(=O)N([C@H](C)CO)C[C@@H]2C)cc1
  -6	4
> C[C@H](CO)N1C[C@H](C)[C@@H](CN(C)Cc2ccncc2)Oc2cc(C3=CCCCC3)ccc2S1(=O)=O
  ?	nt
> O=C(C[C@@H]1CC[C@@H]2NC[C@H](O)COC[C@H]2O1)N1CCc2ccccc2C1
  7	0

# Some of the entries so far, bar-delimited:
Structure | Vaccinia stage | Vaccinia stage Venus
C/C=C/c1ccc2c(c1)O[C@H](CN(C)C(=O)Nc1cccc(F)c1)[C@H](C)CN([C@H](C)CO)S2(=O)=O | ? | nt
COc1cccc(-c2ccc3n(c2=O)C[C@H]2[C@H](CO)[C@@H](C(=O)N(C)C)[C@@H]3N2C(=O)c2cnccn2)c1 | 6 | 6
COc1ccccc1-c1ccc([C@H]2[C@@H](CO)N(C(=O)c3cccc(F)c3)[C@H]2C#N)cc1 | 6 | 1

# (further entries)
# Every second line gives: Vaccinia stage	Vaccinia stage Venus
> O=C(C[C@H]1C[C@@H]2c3cc(NS(=O)(=O)c4ccccc4)ccc3O[C@@H]2[C@@H](CO)O1)NCC1CC1
  10	6
> CC(C)NC(=O)N(C)C[C@H]1Oc2cc(-c3ccccc3)ccc2S(=O)(=O)N([C@H](C)CO)C[C@H]1C
  9	7
> O=C(CC(F)(F)F)N1C[C@H]2[C@@H](c3ccccc31)[C@H](CO)N2C(=O)C1CCCC1
  21	19
> C[C@@H]1CN([C@@H](C)CO)C(=O)Cc2cc(NC(=O)Nc3ccccc3)ccc2O[C@H]1CN(C)Cc1ccc(Oc2ccccc2)cc1
  -30	-23
> C[C@H](CO)N1C[C@H](C)[C@@H](CN(C)CC2CCCCC2)Oc2c(NS(=O)(=O)c3ccc(Cl)cc3)cccc2C1=O
  -4	-8
> CO[C@H]1CN(C)C(=O)c2ccc(NC(C)=O)cc2OC[C@@H](C)N(C(=O)C2CCC2)C[C@H]1C
  16	9
> CC=Cc1ccc2n(c1=O)C[C@H]1[C@H](CO)[C@@H](C(=O)NCCCN(C)C)[C@@H]2N1Cc1nccs1 (mixture of isomers)
  24	9
> C[C@H](CO)N1C[C@H](C)[C@H](CN(C)Cc2cccc(C(=O)O)c2)Oc2ncc(C#CCN(C)C)cc2C1=O
  13	1
> CC(C)NC(=O)N(C)C[C@H]1Oc2ccc(NS(=O)(=O)c3ccccc3)cc2CC(=O)N([C@H](C)CO)C[C@@H]1C
  -2	-1
> C[C@H]1CCCCO[C@@H](CN(C)C(=O)NC2CCCCC2)[C@@H](C)CN([C@@H](C)CO)C(=O)c2cc(NC(=O)Cc3ccccc3)ccc2O1
  ?	nt
> COc1ccc(CN(C)C[C@H]2Oc3ccc(NC(=O)Nc4ccc5c(c4)OCO5)cc3C(=O)N([C@H](C)CO)C[C@@H]2C)cc1
  4	13
> COc1cccc(NC(=O)N(C)C[C@@H]2OCc3ccccc3-c3c(n(C)c4ccccc34)C(=O)N([C@H](C)CO)C[C@H]2C)c1
  ?	nt
> O=C(C[C@@H]1CC[C@@H]2[C@H](COC[C@@H](O)CN2Cc2ccccc2F)O1)N[C@@H]1CCN(Cc2ccccc2)C1
  -3	-1
> COc1cccc(NC(=O)N2[C@@H]3CNC[C@H]2C3c2ccc(-c3cccc(C(=O)N(C)C)c3)cc2)c1 (stereo partly drawn)
  17&1	12&6
> COc1ccc(S(=O)(=O)Nc2ccc3c(c2)C(=O)N([C@@H](C)CO)C[C@H](C)[C@@H](CN(C)S(=O)(=O)c2ccc(C)cc2)OCCCC[C@@H](C)O3)cc1
  -17	-21
